# RGS16-Gao – regulators of human RGS16-Galphao interaction; 0.38% of 220,000 active; binding response (% of control), % at 10 µM; O15492+P09471; bead-based flow cytometry RGS16-Galphao binding, fluorescence; actives lie on both sides;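 active = below 25% or above 175%, edge rows of some plates excepted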;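 note: Galphao activated by GDP with aluminum fluoride before binding; 100% = wells without compound and 0% = beads without RGS; some results beyond the cut were filed as inactive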
# Target sequence (O15492 whole entry, looked up): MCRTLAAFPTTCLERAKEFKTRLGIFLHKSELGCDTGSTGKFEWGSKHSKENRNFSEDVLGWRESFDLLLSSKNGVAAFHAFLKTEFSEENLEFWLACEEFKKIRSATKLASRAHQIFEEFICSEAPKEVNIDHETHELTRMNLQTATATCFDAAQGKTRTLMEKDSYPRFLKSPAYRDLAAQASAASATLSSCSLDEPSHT
# Target sequence (P09471 whole entry, looked up): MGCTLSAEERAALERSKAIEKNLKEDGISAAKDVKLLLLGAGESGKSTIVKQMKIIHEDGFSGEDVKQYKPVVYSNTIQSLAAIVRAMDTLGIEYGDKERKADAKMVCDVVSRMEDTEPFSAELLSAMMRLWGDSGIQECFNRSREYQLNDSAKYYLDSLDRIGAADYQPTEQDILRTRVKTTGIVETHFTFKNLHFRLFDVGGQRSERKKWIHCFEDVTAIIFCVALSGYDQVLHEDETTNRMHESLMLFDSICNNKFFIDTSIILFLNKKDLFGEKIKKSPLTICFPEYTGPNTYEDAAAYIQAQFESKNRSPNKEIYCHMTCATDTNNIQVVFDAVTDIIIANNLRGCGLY
# HSV augment – increases HSV replication in cells. AID 1956. maximum fold increase. 0.005% of 220,000 active. HSV replication augmentation in cells, fold increase;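 active = peak rise of 1.5-fold or more in the series; tested in PC3 cells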;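 note: first round at 10 µM; read as green reporter fluorescence; hits show the peak of a series up to 25 µM; 1 = signal of infected wells without compound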
# Insulin prom inh – TRM-6 insulin promoter activity inhibition; TRM-6 cells (human fetal islet line), insulin promoter-eGFP reporter, imaging; reporter expression induced with tamoxifen; inhibition, % at 2 µM; 0.9% of 130,000 active; AID 1273;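 active = inhibition above the mean plus 3 SD, with well images judged a real hit on visual review, cut at about 60% in these data, passing the limit was not always enough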
# PKD1 kinase inh – blocks activity of human protein kinase D1 | Q15139 | PKD1 kinase fluorescence polarization assay | inhibition, %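 (about 10 µM by stock and volumes)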 | 0.056% of 200,000 active;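 active = inhibition of 50% or more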;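 note: controls were vehicle for no effect and a reference inhibitor for full effect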
# GALR2 ag – agonists of human galanin receptor 2 (GALR2) | 0.48% of 140,000 active | activation, %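 (tested at 5 µM)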 | GALR2-expressing cells, agonist activation read-out | AID 803;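 active = above mean plus 3 SD of all compounds, about 5% in these data, not always enough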;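 note: 0% = vehicle buffer wells and 100% = reference agonist at full effect; tested in CHO reporter cells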
# Target sequence (O43603 whole entry, looked up): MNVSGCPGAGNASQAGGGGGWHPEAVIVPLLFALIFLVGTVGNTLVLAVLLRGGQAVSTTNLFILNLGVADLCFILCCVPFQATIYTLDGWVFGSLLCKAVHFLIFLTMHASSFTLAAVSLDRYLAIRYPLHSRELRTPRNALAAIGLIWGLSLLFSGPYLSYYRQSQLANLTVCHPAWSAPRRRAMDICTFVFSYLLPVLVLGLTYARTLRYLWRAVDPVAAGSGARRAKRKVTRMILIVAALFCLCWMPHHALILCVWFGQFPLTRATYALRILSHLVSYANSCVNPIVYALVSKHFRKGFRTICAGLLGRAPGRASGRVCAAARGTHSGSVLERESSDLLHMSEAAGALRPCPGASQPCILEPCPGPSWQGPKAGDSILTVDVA
# Insulin prom inh cell count – also measured in Insulin prom inh; calls as there; normalized cell count, %; measured here: cell count, toxicity; reference of the scale not given here;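 cells exposed to compound for 48 h; stained nuclei by imaging scaled within each plate; lower means fewer cells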
# HSV augment primary fold – further read-out of HSV augment, marked with its call; fold increase; compound at 10 µM; measured here: primary screen fold increase 10 uM; tested in PC3 cells;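 GFP signal in the first replicate; 1 = infected wells without compound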
# The depositor's hits bear a star; i = inactive; . = no result given.
# Codes – A = RGS16-Gao; B = HSV augment; C = HSV augment primary fold; D = Insulin prom inh; E = Insulin prom inh cell count; F = PKD1 kinase inh; G = GALR2 ag
NC(=O)N1CC(O)CC1C(=O)Nc1ccc(Cl)c(Cl)c1 (configuration not stated)
  A: 102; B: i; C: 0.96; D: 0; E: 78; F: -6; G: -1.6
Cc1ccc(C(=O)Oc2cc(C)n(C)c(=O)c2)cc1
  A: 96; B: i; C: 0.86; D: .; E: .; F: 13; G: -1.3
C/C(=N\Nc1nc(C)cc(=O)[nH]1)C1CC1
  A: 102; B: i; C: 1.2; D: .; E: .; F: 6; G: 0.5
COC(=O)c1cc(OC)c(OC)cc1NC(=O)Cc1ccccc1[N+](=O)[O-]
  A: 109; B: i; C: 1; D: 37; E: 122; F: -14; G: -1.3
CN(C)/C=N/c1sc2c(c1C#N)CCCCC2
  A: 101; B: .; C: .; D: 0; E: 140; F: 0; G: -0.1
COc1ccccc1CN1C[C@@H]2C[C@@H](c3ccccc3OC)N3CCC[C@@]23C1=O
  A: 94; B: i; C: 0.94; D: .; E: .; F: .; G: .
CCSc1nncn1/N=C/c1ccc(OC)c(OC)c1
  A: 100; B: i; C: 0.88; D: -3; E: 117; F: -7; G: 0.5
c1ccc(CCc2nc(-c3ccccc3)no2)cc1
  A: 103; B: i; C: 1.1; D: 28; E: 78; F: -4; G: -1.1
CC(C)C(c1nnnn1CC1CCCO1)N1CCN(C2CCCC2)CC1 (configuration not stated)
  A: 112; B: i; C: 0.99; D: .; E: .; F: -8; G: -1.5
O=C(C1CC1)N1CCN(c2ccc([N+](=O)[O-])cc2-n2cccc2)CC1
  A: 97; B: i; C: 0.99; D: .; E: .; F: .; G: .
CC(=O)c1ccc(Nc2cc(C)nc3nc(C)nn23)cc1
  A: 69; B: .; C: .; D: 30; E: 100; F: -7; G: -1.2
COc1ccc2oc(=O)c(-c3nc(C)cs3)cc2c1
  A: 101; B: i; C: 0.97; D: 39; E: 111; F: -5; G: 1.6
CCc1cccc(CC)c1NC(=S)N(CCN(C)C)C(C)c1cccnc1 (configuration not stated)
  A: 106; B: i; C: 1; D: -15; E: 150; F: -1; G: .
CCN(CC)S(=O)(=O)c1ccc(OC)c(NC(=O)c2cc(C)on2)c1
  A: 103; B: i; C: 1.1; D: -28; E: 86; F: 7; G: .
CCN(CC(=O)NC1CCS(=O)(=O)C1)S(=O)(=O)c1ccc2ccccc2c1 (configuration not stated)
  A: 106; B: i; C: 0.97; D: 30; E: 91; F: -3; G: 0.2

# Next section, starting with the last 7 of the part before.
# Codes – A = RGS16-Gao; B = HSV augment; C = HSV augment primary fold; D = Insulin prom inh; E = Insulin prom inh cell count; F = PKD1 kinase inh; G = GALR2 ag
CC(C)C(c1nnnn1CC1CCCO1)N1CCN(C2CCCC2)CC1 (configuration not stated)
  A: 112; B: i; C: 0.99; D: .; E: .; F: -8; G: -1.5
O=C(C1CC1)N1CCN(c2ccc([N+](=O)[O-])cc2-n2cccc2)CC1
  A: 97; B: i; C: 0.99; D: .; E: .; F: .; G: .
CC(=O)c1ccc(Nc2cc(C)nc3nc(C)nn23)cc1
  A: 69; B: .; C: .; D: 30; E: 100; F: -7; G: -1.2
COc1ccc2oc(=O)c(-c3nc(C)cs3)cc2c1
  A: 101; B: i; C: 0.97; D: 39; E: 111; F: -5; G: 1.6
CCc1cccc(CC)c1NC(=S)N(CCN(C)C)C(C)c1cccnc1 (configuration not stated)
  A: 106; B: i; C: 1; D: -15; E: 150; F: -1; G: .
CCN(CC)S(=O)(=O)c1ccc(OC)c(NC(=O)c2cc(C)on2)c1
  A: 103; B: i; C: 1.1; D: -28; E: 86; F: 7; G: .
CCN(CC(=O)NC1CCS(=O)(=O)C1)S(=O)(=O)c1ccc2ccccc2c1 (configuration not stated)
  A: 106; B: i; C: 0.97; D: 30; E: 91; F: -3; G: 0.2
CCOC(=O)N1CCN(S(=O)(=O)c2cc3c(cc2C)NC(=O)CO3)CC1
  A: 112; B: i; C: 0.98; D: .; E: .; F: 2; G: 1.0
COc1ccccc1C1CCCN1Cc1nc(-c2cc3c(cc2Cl)OCO3)oc1C (configuration not stated)
  A: 103; B: i; C: 0.93; D: .; E: .; F: -5; G: .
CCOc1ccc(-c2nnc(SCc3nc4ccccc4[nH]3)n2N)cc1
  A: 102; B: i; C: 0.66; D: -92; E: 72; F: -5; G: -1.4
COc1ccc(OC)c(Nc2nc(N)nc(CSc3nnc(N)s3)n2)c1
  A: 106; B: i; C: 0.94; D: 4; E: 111; F: 6; G: 17*
CCOC(=O)c1ccc(N2C(=O)C3CC=C(C)CC3C2=O)cc1 (configuration not stated)
  A: 100; B: i; C: 1.1; D: 55; E: 44; F: 4; G: -1.7
Cc1cc(C(=O)NC2Cc3ccccc3C2)c(C)o1
  A: 101; B: i; C: 1.1; D: .; E: .; F: .; G: .
Cc1ccc2nc(NNC(=O)c3ccc4c(c3)OCCO4)sc2c1
  A: 101; B: .; C: .; D: 55; E: 89; F: 0; G: -0.3
COC(=O)N/N=C/c1cc(N=Nc2ccccc2)ccc1O
  A: 110; B: i; C: 1.1; D: .; E: .; F: .; G: .
CC1(C)C(=O)Nc2ccccc2N1C(=O)COC(=O)C1CCCCC1
  A: 100; B: i; C: 0.96; D: -26; E: 139; F: -3; G: -1.2
COc1ccc(-c2ccnc(SCC(=O)Nc3ccccn3)n2)cc1
  A: 109; B: i; C: 1; D: -6; E: 147; F: -1; G: -3.4
Fc1ccc(C2=NOC(c3nnc(-c4ccccc4)o3)C2)cc1 (configuration not stated)
  A: 117; B: i; C: 0.73; D: .; E: .; F: .; G: .
CNC(=S)N/N=C/c1c(Cl)cccc1Cl
  A: 107; B: i; C: 1; D: 28; E: 78; F: 5; G: -1.7
COc1ccc(C(=O)N/N=C(\CCC(=O)O)c2ccc(C(C)(C)C)cc2)cc1OC
  A: 102; B: i; C: 0.88; D: .; E: .; F: -4; G: .
COCCNC(=O)c1cccc(C)c1[N+](=O)[O-]
  A: 103; B: i; C: 1.1; D: .; E: .; F: -2; G: 0.1
COc1cccc(-c2cc(C(=O)Nc3nc4ccccc4s3)c3ccccc3n2)c1
  A: 101; B: i; C: 0.91; D: 40; E: 122; F: 3; G: -2.4

# In the list so far, 2 have two or more sulfur atoms.
# Codes – A = RGS16-Gao; B = HSV augment; C = HSV augment primary fold; D = Insulin prom inh; E = Insulin prom inh cell count; F = PKD1 kinase inh; G = GALR2 ag
CCN(CC(=O)NC1CCS(=O)(=O)C1)S(=O)(=O)c1ccc2ccccc2c1 (configuration not stated)
  A: 106; B: i; C: 0.97; D: 30; E: 91; F: -3; G: 0.2
COc1ccc(OC)c(Nc2nc(N)nc(CSc3nnc(N)s3)n2)c1
  A: 106; B: i; C: 0.94; D: 4; E: 111; F: 6; G: 17*

# Looked up one by one from the list above:
# Codes – A = RGS16-Gao; B = HSV augment; C = HSV augment primary fold; D = Insulin prom inh; E = Insulin prom inh cell count; F = PKD1 kinase inh; G = GALR2 ag
Fc1ccc(C2=NOC(c3nnc(-c4ccccc4)o3)C2)cc1 (configuration not stated)
  A: 117; B: i; C: 0.73; D: .; E: .; F: .; G: .
COc1ccccc1C1CCCN1Cc1nc(-c2cc3c(cc2Cl)OCO3)oc1C (configuration not stated)
  A: 103; B: i; C: 0.93; D: .; E: .; F: -5; G: .

# Next compounds follow:
# Codes – A = RGS16-Gao; B = HSV augment; C = HSV augment primary fold; D = Insulin prom inh; E = Insulin prom inh cell count; F = PKD1 kinase inh; G = GALR2 ag
O=C(c1ccccc1)n1ccn(-c2ccccc2)c1=S
  A: 103; B: i; C: 0.92; D: 25; E: 107; F: 5; G: -1.7
CC(C)(C)NC(=O)CSc1nc2[nH]ncc2c(=O)[nH]1
  A: 102; B: i; C: 0.99; D: 37; E: 140; F: 0; G: .
CCc1noc(C)c1C(=O)N1CCCC(C(=O)c2cc(F)ccc2F)C1 (configuration not stated)
  A: 103; B: i; C: 0.99; D: .; E: .; F: -2; G: .
Brc1ccc(CSc2nnc(-c3cccnc3)o2)cc1
  A: 103; B: i; C: 1.1; D: 33; E: 64; F: 6; G: .
O=C(CSc1ccc2nnc(-c3cccnc3)n2n1)NCc1ccco1
  A: 97; B: i; C: 0.96; D: .; E: .; F: -9; G: -5.0
CC(=O)N1N=C(c2ccc(C(C)(C)C)cc2)OC1(C)C
  A: 31; B: i; C: 0.95; D: .; E: .; F: -3; G: -0.2
Fc1ccc(C(c2nnnn2Cc2ccccc2)N2CCSCC2)cc1 (configuration not stated)
  A: 99; B: i; C: 0.67; D: -11; E: 79; F: -12; G: -2.9
CN(Cc1ccccc1)C(=S)NC(=O)C1CCCCC1
  A: 98; B: i; C: 1; D: .; E: .; F: -6; G: 0.4
Cn1c(=O)c(C(=O)COC(=O)c2cc(C(F)(F)F)nc3c(C(F)(F)F)cccc23)c(N)n(CC2CC2)c1=O
  A: 102; B: .; C: .; D: -19; E: 43; F: -14; G: -3.5
COCCNC(=S)N/N=C/c1ccc(OCc2ccc(C(=O)OC)cc2)c(OC)c1
  A: 98; B: i; C: 0.91; D: 29; E: 157; F: 2; G: -1.0
CSc1ccc(/C=N/n2nnnc2N)cc1
  A: 99; B: i; C: 1; D: 22; E: 121; F: -2; G: -1.2
O=C(N/N=C/c1ccc([N+](=O)[O-])o1)c1cc(-c2ccncc2)nc2ccccc12
  A: 99; B: i; C: 0.52; D: .; E: .; F: -1; G: -2.3
O=C(c1cc(-c2cccnc2)nc2ccc(Br)cc12)N1CCC2(CC1)OCCO2
  A: .; B: .; C: .; D: -41; E: 128; F: -4; G: -3.0
CC(C)(C)OC(=O)N1CC(O)CC1C(=O)OCC(=O)c1ccc(Cl)cc1 (configuration not stated)
  A: 97; B: i; C: 1.1; D: .; E: .; F: -10; G: -2.3
COc1ccc(OCc2cnc(Cl)s2)cc1
  A: 104; B: i; C: 1.1; D: 11; E: 70; F: 5; G: -1.3
COc1ccc(N(CC(=O)N2CCN(c3ccccc3F)CC2)S(=O)(=O)c2c(C)n[nH]c2C)cc1
  A: 124; B: .; C: .; D: -29; E: 53; F: -7; G: .
CCn1c(COc2ccccc2)nnc1SCc1ccc(C#N)cc1
  A: 97; B: i; C: 0.92; D: -8; E: 122; F: 11; G: -0.6
Cc1nc2c(c(C)nn2-c2ccccc2)c(C)c1CCC(=O)Nc1ccc(CN2CCCC2)cc1
  A: 103; B: i; C: 0.69; D: .; E: .; F: .; G: .
CCn1c2ccccc2n2c(=O)c(=O)n(CC(=O)Nc3ccc(C(C)C)cc3)nc12
  A: 114; B: i; C: 0.92; D: .; E: .; F: -13; G: 0.8
CC(C)Nc1nc(SCC(=O)Nc2ccccc2)nc(N2CCOCC2)n1
  A: 99; B: i; C: 0.92; D: -238; E: 20; F: 2; G: -0.3
CC(=O)Nc1cc2c(cc1C(=O)C(C)C)OCCO2
  A: 100; B: i; C: 0.86; D: 62; E: 163; F: 0; G: -0.9
O=C(Nc1ccccc1O)c1csc2c1CCCC2
  A: 106; B: i; C: 0.91; D: .; E: .; F: -2; G: .
O=C(NCc1ccc2c(c1)OCO2)c1ccc(-c2ccc(Cl)cc2)o1
  A: 107; B: i; C: 0.99; D: 19; E: 144; F: -2; G: -2.2
Cc1cc(C)cc(OCc2nnc(SCC(=O)OC3CCCCC3)o2)c1
  A: 95; B: i; C: 0.92; D: 16; E: 118; F: -7; G: -1.9
O=C(/C=C\Nc1ccccc1Br)c1ccc2c(c1)OCO2
  A: 93; B: i; C: 1; D: 8; E: 113; F: -9; G: .
Cc1ccc(S(=O)(=O)NCCCn2ccnc2)cc1
  A: 99; B: .; C: .; D: -8; E: 85; F: 3; G: -2.0
O=C(Nc1nc(-c2cccs2)cs1)c1ccc(Cl)cc1
  A: 102; B: i; C: 0.86; D: 63; E: 141; F: -3; G: 0.7
O=C(N/N=C/c1ccncc1)c1cccc(S(=O)(=O)Nc2ccc(Cl)cc2)c1
  A: 101; B: i; C: 1; D: .; E: .; F: .; G: .
O=C(NNC(=O)C1COc2ccccc2O1)c1cccc([N+](=O)[O-])c1 (configuration not stated)
  A: 97; B: i; C: 1.1; D: -29; E: 123; F: 11; G: .
CCCN1C(=O)/C(=C/c2ccco2)SC1=Nc1ccc(OC)cc1
  A: 105; B: i; C: 0.92; D: 23; E: 79; F: -6; G: -1.1
COc1ccc(C2Nc3ccccc3C(=O)N2c2ccc(Cl)cc2)cc1Cn1cc([N+](=O)[O-])cn1 (configuration not stated)
  A: 84; B: i; C: 0.99; D: 3; E: 59; F: 0; G: 0.0
CCC(C(=O)Nc1cnccn1)c1ccccc1 (configuration not stated)
  A: 12; B: i; C: 1; D: 14; E: 75; F: 2; G: -0.4
COc1ccc(/C=C\C(=O)NCC(=O)N/N=C/c2ccc(O)cc2O)cc1
  A: 86; B: i; C: 0.98; D: .; E: .; F: .; G: .
Fc1ccccc1Nc1nc2c(s1)CCc1ccccc1-2
  A: 107; B: i; C: 1.1; D: 0; E: 110; F: -1; G: 0.1
